RecA splice inh – Mtb RecA intein splicing inhibitors, primary screen, biochemical, fluorescence, HTS; Protein RecA (Mycobacterium tuberculosis (strain ATCC 25618 / H37Rv)), P9WHJ3; cell-free RecA intein splicing; inhibition, %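 (about 9 µM by stock and volumes)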; 290,000 compounds, 0.75% hits; AID 2221, 2009; in the data active = inhibition above about 30%; inconclusive = no clear call, values can overlap the other calls;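 note: 0% = vehicle wells and 100% = reference inhibitor control wells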
Target sequence (P9WHJ3 whole entry, looked up, canonical isoform): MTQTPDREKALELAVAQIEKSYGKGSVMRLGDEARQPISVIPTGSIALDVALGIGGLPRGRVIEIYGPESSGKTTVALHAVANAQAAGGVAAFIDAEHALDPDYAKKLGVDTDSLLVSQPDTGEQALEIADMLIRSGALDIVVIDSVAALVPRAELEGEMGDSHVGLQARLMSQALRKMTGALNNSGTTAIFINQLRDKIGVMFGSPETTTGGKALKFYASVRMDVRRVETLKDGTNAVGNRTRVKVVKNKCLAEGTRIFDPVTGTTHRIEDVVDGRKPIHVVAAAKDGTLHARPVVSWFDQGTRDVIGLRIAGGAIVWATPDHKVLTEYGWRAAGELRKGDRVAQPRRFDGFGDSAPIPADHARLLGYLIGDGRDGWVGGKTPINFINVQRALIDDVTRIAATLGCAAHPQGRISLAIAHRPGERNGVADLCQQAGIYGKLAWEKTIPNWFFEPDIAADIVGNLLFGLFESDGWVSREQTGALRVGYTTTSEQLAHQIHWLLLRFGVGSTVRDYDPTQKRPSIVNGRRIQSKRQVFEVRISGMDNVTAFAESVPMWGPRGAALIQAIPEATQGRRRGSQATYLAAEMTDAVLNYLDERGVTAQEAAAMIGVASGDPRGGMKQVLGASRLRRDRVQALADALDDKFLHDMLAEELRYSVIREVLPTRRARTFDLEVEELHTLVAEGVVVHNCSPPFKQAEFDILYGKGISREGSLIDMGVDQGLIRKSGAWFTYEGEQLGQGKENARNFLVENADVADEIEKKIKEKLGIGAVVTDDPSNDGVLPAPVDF
Mtb betalactam – beta-lactam sensitization of Mtb H37Rv, H37Rv | 330,000 compounds, 0.27% hits | inhibition, % at 25 µM | M. tuberculosis H37Rv growth with meropenem, percent inhibition; hits of this screen are not shown here;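 active = about 74% or more and at least 40 points above the plate without the antibiotic, then above 30% in a dose series; inconclusive = first-round hits that could not be retested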;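 note: growth measured after seven days incubation then overnight dye step; 0% = bacteria only wells and 100% = bacteria with antibiotic; twin plates without the antibiotic show which effects depend on it; some results filed as inactive read as strong as hits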
Arbovirus anti – antivirals against arbovirus infection, primary screen, cell-based, full library, 10K replicate subset; inhibition, % at 10 µM; AID 1251, 2008; 200,000 compounds, 0.37% hits; arbovirus infection cell-based antiviral screen;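 active = inhibition from about 30%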;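 note: bluetongue infection of BSR cells; cell survival read as ATP light after 72 h; 0% = infected wells without compound and 100% = uninfected wells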
Mtb growth – M. tuberculosis H37Rv growth inhibitors, H37Rv strain (AID 1626); M. tuberculosis H37Rv growth inhibition; higher % means a stronger effect; inhibition, % at 10 µM; hits with a dose series show IC50 in µM; 220,000 compounds, 0.95% hits;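 active = confirmed in a dose series; inconclusive = inhibition above 80% but not taken into the dose series; inactive = below 80% or under 30% at every dose of the series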;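 note: bacteria incubated seven days before Alamar blue readout; 0% = bacteria only wells and 100% = bacteria with antibiotic wells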
YopH PTP inh – YopH tyrosine phosphatase inhibitors, primary screen, biochemical, fluorescence Ex485/Em525; inhibition, %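 (about 10 µM by stock and volumes)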; 140,000 compounds, 0.16% hits;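 active = inhibition of 50% or more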;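 note: controls were vehicle for no effect and minimum signal wells for full effect; inactives centre near -20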
Arbovirus anti repeat – second read-out of Arbovirus anti, no call of its own (marks repeat the call); inhibition, %; measured here: 10K subset replicate screen; many hits read low in the repeat;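 first of two repeat runs on a subset; 0% = infected and 100% = uninfected wells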
The depositor's hits bear a star; ? = inconclusive; . = not tested or not shown. This is a subset; count on the stated rates, not on these rows.

SMILES	RecA splice inh	Mtb betalactam	Arbovirus anti	Mtb growth	YopH PTP inh	others
Cc1ccc(CN2C(=O)CCC2C(=O)NCCc2ccccc2)cc1 (configuration not stated)	-0.2	-12	.	.	.
O=C(CSc1nnc(C2COc3ccccc3O2)o1)Nc1ccc(F)cc1Cl (configuration not stated)	0.3	-8	7	-16%	.
O=S(=O)(c1cccc(-c2nc3n(n2)Cc2ccccc2-3)c1)N1CCCCC1	0.2	-3	5	-2%	-40
COc1ccccc1NC(=O)CN1CCCCC1	-0.6	-1	6	-2%	-24
Cc1occc1C(=O)NC1CCCN(Cc2ccc(Cl)cc2)C1 (configuration not stated)	0.8	4	.	.	.
CCCCSc1ccc(NC(=O)c2cccnc2)cc1	2.6	97	6	?	-17
COc1ccc(C)cc1Nc1nc(-c2c[nH]c3ccccc23)cs1	1.6	6	-1	-2%	-2
OC[C@@H](O)[C@H](O)C(/C=N/Nc1ccccc1)=N\Nc1ccccc1	1.1	93	.	?	.
CCOC(=O)c1c(/N=C/c2cc(OC)cc([N+](=O)[O-])c2O)sc(C)c1C	-2.5	1	-13	-8%	-45
CC(C)(C)NC(=O)Cn1nnc(-c2ccccc2NC(=O)c2cnccn2)n1	1.8	-12	1	-6%	-11
CCOC(=O)C1CCN(C(=O)CN(C)S(=O)(=O)c2cc(C)ccc2OC)CC1	0.3	7	6	0%	-6
Cn1nc(C(F)(F)F)cc1-c1ccc(S(N)(=O)=O)s1	0.3	-2	.	3%	.
O=C(COc1ncnc2ccccc12)Nc1ccc(S(=O)(=O)N2CCOCC2)cc1	-0.3	0	.	2%	.
Cc1cc2c(cc(C(=O)N3CCC(C(=O)NC4CCCC4)CC3)n2Cc2c(F)cccc2Cl)o1	1.1	0	-10	-3%	.
CCOc1ccc2c(C)c(Cl)c(=O)oc2c1	0.3	-3	-5	-2%	-30
COc1ccc(NC(=O)c2ccco2)cc1NC(=O)c1ccccc1F	-1.4	2	.	.	.
CCOC(=O)c1c(C)[nH]c(C(=O)OCC(=O)Nc2cccnc2Cl)c1C	-1.2	-6	.	.	.
O=C(c1cccc(N2C(=O)C3C4C=CC(C4)C3C2=O)c1)N1CCN(c2ccccc2Cl)CC1 (configuration not stated)	3.4	0	.	.	.
COc1ccc(/C=N/NC(=O)CCCC(=O)NC2CCCCC2)cc1	-2.9	-6	-1	1%	-10
CCCOc1ccc(N2C(=O)CC(SC(=NCC)NCC)C2=O)cc1 (configuration not stated)	-1.1	-1	0	10%	-32
COc1ccc(CCNC(=O)CCNS(=O)(=O)c2ccc3c(c2)CCN3C(C)=O)cc1OC	.	-2	3	-8%	7
CC(C)(C)S(=O)(=O)c1cnc(N2CCOCC2)nc1N	-3.4	-2	.	-6%	.
O=C(NCc1ccccn1)c1ccc(Cn2cc(C(F)(F)F)ccc2=O)cc1	3.3	-3	8	-4%	.
Cc1ccc(-c2c(C(=O)N/N=C/c3cccnc3)nnn2-c2nonc2N)cc1	3.3	5	.	.	.
CCCn1c(SCC(=O)OCC)nc(C(F)(F)F)cc1=O	-0.3	6	-1	-6%	.

2 neighbouring compounds from above, quoted:
SMILES	RecA splice inh	Mtb betalactam	Arbovirus anti	Mtb growth	YopH PTP inh	others
Cc1ccc(CN2C(=O)CCC2C(=O)NCCc2ccccc2)cc1 (configuration not stated)	-0.2	-12	.	.	.
O=C(CSc1nnc(C2COc3ccccc3O2)o1)Nc1ccc(F)cc1Cl (configuration not stated)	0.3	-8	7	-16%	.

(listing goes on)
SMILES	RecA splice inh	Mtb betalactam	Arbovirus anti	Mtb growth	YopH PTP inh	others
CN(CC#CC(O)(c1ccccc1)c1ccccc1)C(C)(C)C	-1.4	-7	.	9%	.
CC(=O)Nc1cccc(S(=O)(=O)N2CCCCCC2)c1	0.1	-5	2	-4%	-21
CC(C)(OC(=O)NC(=O)C(F)(F)F)C(C)(C)OC(=O)NC(=O)C(F)(F)F	-1.6	-4	-3	-8%	.
CCn1nc(C)cc1C(=O)N(C)C1CCCN(Cc2ccccc2F)C1 (configuration not stated)	2.6	?	.	.	.
CCN(CC)CCNC(=O)Cn1cnc2sc(C)c(S(=O)(=O)N3CCC(C)CC3)c2c1=O	-0.9	4	.	.	.
CC(=O)Oc1ccc(-c2cc3c(OC(C)=O)cc(OC(C)=O)cc3oc2=O)cc1	-424	-5	.	-3%	.
CCOc1ccc(CN2CCCC(CO)(Cc3ccc(F)cc3)C2)cc1 (configuration not stated)	-0.5	-2	.	.	.
Cc1nn(-c2ccccc2)c(C)c1/C=N/NC(=O)CSc1nnc(SCc2ccc(Cl)cc2)s1	5.6	1	-1	.	-20
COc1cc(NC(=O)CN(c2cc(C)cc(C)c2)S(=O)(=O)c2c(C)[nH]c(=O)[nH]c2=O)cc(OC)c1	-0.7	-6	.	.	.
CC1(C)Cc2c(sc(/N=C/N3CCCCC3)c2C#N)C(C)(C)N1	-3.1	4	-2	7%	2
CCCC[N+]12C3C[C@H](C4[C@H](O)[C@]5(C[C@@H]41)c1ccccc1N(C)[C@@H]35)[C@H](CC)[C@H]2O (some centres not stated)	-2.6	4	.	.	.
COc1ccc(-c2csc(NC(=O)C3CCCO3)n2)cc1 (configuration not stated)	-0.4	2	11	-7%	-36
O=C(CN1C(=O)/C(=C/c2ccccc2)Sc2ccccc21)NCCCN1CCOCC1	3.2	-3	.	.	.
Cc1cccc(N2C(=O)/C(=C/c3ccc(CN(CCC#N)S(C)(=O)=O)o3)C(=O)NC2=S)c1	-1.2	3	8	-2%	0
CN1C(=S)SC(N2OC3C(=O)N(c4ccccc4)C(=O)C3C2c2ccc(Cl)cc2)C1(C)C (configuration not stated)	2.4	6	2	-7%	-4
c1coc(C2Nc3ccccc3C3OCCC23)c1 (configuration not stated)	0.7	-7	2	-9%	-14
COc1ccc(/C=C/C(=O)OCc2csc(-c3ccccc3)n2)cc1OC	-0.6	11	-1	11%	-36
Cc1ccc(CNC(=O)c2cccc(S(C)(=O)=O)c2)cc1	-2.8	3	-1	5%	1
Cc1ccc(C(C)NC(=O)c2cc(C)oc2C)cc1 (configuration not stated)	2.4	-10	5	-6%	-23
COc1ccc(-c2noc(C(C)NS(=O)(=O)c3ccc(NC(C)=O)cc3)n2)cc1 (configuration not stated)	1.5	3	.	.	.
COc1cc2c(cc1OC)/C(=C/c1ccc(Cl)cc1)C(=O)OC2	10	5	6	0%	-22
COc1ccc(CNC(=O)CSc2nnc(-c3ccc(NC(C)=O)cc3)n2C)cc1	-0.8	3	2	-3%	-10
O=C(c1ccc(Br)cc1)N(Cc1ccco1)C1CCS(=O)(=O)C1 (configuration not stated)	-2.7	0	.	.	.
CC1Cc2ccccc2N1C(=S)NC(=O)c1cccc(Br)c1 (configuration not stated)	8.9	90	-10	?	-24
CCOc1ccc(Nc2nc3cc(S(=O)(=O)CC)ccc3o2)cc1	0.0	-8	.	-8%	.

Following part:
SMILES	RecA splice inh	Mtb betalactam	Arbovirus anti	Mtb growth	YopH PTP inh	others
CC(=O)N1CCc2cc(S(=O)(=O)CCC(=O)N3CCN(C(=O)c4ccco4)CC3)ccc21	.	-8	-3	-3%	-26
CN1CCN(C(=O)CCCN2C(=O)/C(=C/c3ccccc3)SC2=S)CC1	6.5	-2	.	.	.
COc1ccc(C2NC(Cc3ccccc3)(C(=O)O)C3C(=O)N(c4ccccc4OC)C(=O)C23)cc1 (configuration not stated)	-1.6	-3	2	-1%	.
CN(C)S(=O)(=O)N(CC(=O)NCCSCc1ccc(Cl)cc1)c1ccccc1	3.6	0	-13	-2%	.
CCC(CC)C(=O)Nc1ccc(Sc2ccc([N+](=O)[O-])cc2)cc1	-0.7	81	8	8%	-15
O=C(COC(=O)/C=C/c1ccc([N+](=O)[O-])cc1)NCc1ccc2c(c1)OCO2	-0.9	-4	.	1%	.
Cn1nc(-c2ccc(N3CCOCC3)c(NS(=O)(=O)c3ccccc3)c2)c2ccccc2c1=O	0.5	-9	-5	-4%	-11
CC1CC(C)CN(C(=O)c2cc(-c3ccncc3)nc3ccccc23)C1 (configuration not stated)	1.8	-13	.	.	.
COC(=O)CSc1nc2cc(Cl)ccc2c(=O)n1C1CCCC1	4.3	1	-3	3%	-21
CCOC(=O)C(CC)/C(C)=N/NC(=O)c1ccc([N+](=O)[O-])cc1 (configuration not stated)	-1.3	1	-3	-4%	-40
C/C(=N\NC(=O)c1nn(C)cc1Br)c1cccc(NC(=O)C(C)(C)C)c1	-1.8	45	-2	1%	-16
CC(=O)Nc1ccc(S(=O)(=O)N(C)c2ccc(O)cc2)cc1	-1.9	2	9	4%	-33
O=C(NCCc1ccccc1)c1ccc2[nH]c(=O)c(=O)[nH]c2c1	-0.6	0	.	.	.
CCOc1ccc(CN(C(=O)c2oc3ccccc3c2C)C2CCS(=O)(=O)C2)cc1 (configuration not stated)	2.0	-1	-10	-9%	-13
Cc1ccc(C)c(N2CCN(c3ccc4cc(S(=O)(=O)N5CCCCC5)ccc4n3)CC2)c1	-5.3	0	.	.	.
Cc1ccccc1C(=O)NNC(=O)Cc1cccc2ccccc12	-1.6	-1	2	1%	-6
O=C1CCCCN1CC(=O)N1CCCC(Nc2ccc(F)cc2)C1 (configuration not stated)	2.3	9	.	.	.
CCC(=O)C1CCCN(C(=O)c2ccc(OC3CCN(C(=O)CCOC)CC3)cc2)C1 (configuration not stated)	2.8	-2	.	.	.
Cc1cc(C)nc(SCC(CSc2nc(C)cc(C)n2)C(=O)O)n1	-1.6	5	1	0%	.
COc1ccc(NC2=NCCC(=O)N2Cc2cccs2)cc1	-1.3	-6	8	-12%	-36
O=C(CCc1ccccc1)Nc1cc2c(cc1Cl)OCCO2	0.1	1	-1	14%	-36
COc1ccccc1CNC(=O)COC(=O)c1ccc(NC(N)=O)cc1	0.2	-2	9	10%	1	Arbovirus anti repeat=1
CN(CC(O)COc1c(F)cc(Br)cc1F)C1CCCCC1 (configuration not stated)	-3.6	-5	-11	12%	2
COc1ccc(CNc2cc([N+](=O)[O-])ccc2OC)cc1	8.4	5	-5	5%	-13
O=C(OCC(=O)c1ccc(Cl)s1)c1ccc2ccccc2n1	2.5	7	1	17%	-3

Next compounds:
SMILES	RecA splice inh	Mtb betalactam	Arbovirus anti	Mtb growth	YopH PTP inh	others
O=C(CS(=O)(=O)c1c[nH]c2ccccc12)N1CCCCCC1	-0.4	-1	21	-2%	.
CCOC(=O)C1=C(COC(=O)/C=C/c2ccc(OCC)c(OC)c2)NC(=O)NC1C (configuration not stated)	-2.8	-7	.	.	.
CC(=C/c1ccccc1)/C=N/NC(=O)c1nnn(-c2nonc2N)c1CN1CCC(C)CC1	-2.8	6	.	.	.
Cn1c(CNC(=O)c2ccco2)nnc1SCC(=O)Nc1c(F)cc(F)cc1Br	1.7	0	-4	-8%	.
N/C(=N\OC(=O)CC1CCCCC1)c1ccccn1	1.5	7	5	-5%	-68
O=C(O)c1ccc(-n2cncn2)c([N+](=O)[O-])c1	-2.6	-1	.	-2%	.
O=C(NN1C(=O)/C(=C/c2ccc(O)c([N+](=O)[O-])c2)SC1=S)c1ccccc1Cl	17	-4	-7	5%	.
CCOc1ccc(-n2c(SCc3cc(=O)oc4cc(C)ccc34)nnc2-c2cccnc2)cc1	4.1	-7	5	16%	-25
CCOC(=O)c1ccc(NC(=S)Nc2ccccc2)cc1	.	92	-2	?	2
Cc1c(NC(=O)Nc2ccc(Cl)c(Cl)c2)sc(=S)n1C	21	0	.	?	-23
Oc1cccc(C(=S)N2CCC(Cc3ccccc3)CC2)c1	11	-2	.	.	.
O=C(NCc1nc2ccccc2[nH]1)C1=C[C@@H](c2csc3ccccc23)C[C@@H](OCCCCO)O1	11	54	.	4%	.
Cc1nc(Nc2ccc(S(=O)(=O)N3CCCCC3C)cc2)c2nnn(Cc3ccccc3)c2n1 (configuration not stated)	1.1	10	5	12%	-14

Structures shown so far that contain a nitro group on carbon, in the order listed:
SMILES	RecA splice inh	Mtb betalactam	Arbovirus anti	Mtb growth	YopH PTP inh	others
CCOC(=O)c1c(/N=C/c2cc(OC)cc([N+](=O)[O-])c2O)sc(C)c1C	-2.5	1	-13	-8%	-45
CCC(CC)C(=O)Nc1ccc(Sc2ccc([N+](=O)[O-])cc2)cc1	-0.7	81	8	8%	-15
O=C(COC(=O)/C=C/c1ccc([N+](=O)[O-])cc1)NCc1ccc2c(c1)OCO2	-0.9	-4	.	1%	.
CCOC(=O)C(CC)/C(C)=N/NC(=O)c1ccc([N+](=O)[O-])cc1 (configuration not stated)	-1.3	1	-3	-4%	-40
COc1ccc(CNc2cc([N+](=O)[O-])ccc2OC)cc1	8.4	5	-5	5%	-13
O=C(O)c1ccc(-n2cncn2)c([N+](=O)[O-])c1	-2.6	-1	.	-2%	.
O=C(NN1C(=O)/C(=C/c2ccc(O)c([N+](=O)[O-])c2)SC1=S)c1ccccc1Cl	17	-4	-7	5%	.
